ID4 SMM: binders of human ID4 protein | P47928 | 31,000 tested, 1.2% active | calls only | small molecule microarray, Flag-ID4 binding, fluorescence F/B;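 active = spot signal over background at p below 0.07 in all four prints; compounds were printed on slides so no solution concentration is given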;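 also: a binder raises fluorescence above local background on the spot; about 2 pmol printed per array spot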
Target sequence (P47928 whole entry, looked up): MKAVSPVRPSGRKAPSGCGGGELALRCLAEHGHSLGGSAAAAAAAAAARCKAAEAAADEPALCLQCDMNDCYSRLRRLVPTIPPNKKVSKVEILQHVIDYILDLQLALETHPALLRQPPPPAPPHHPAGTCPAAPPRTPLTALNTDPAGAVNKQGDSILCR
Myc binder: c-Myc (human) binding; P01106; small molecule microarray, His-c-Myc binding, anti-His fluorescence; calls only; 17,000 tested, 1.5% active;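 active = spot fluorescence over background with P-value below 7% in all four replicate spots, showing protein binding; compounds were printed on slides so no solution concentration is given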;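 also: score is binary with 100 for all four spots passing and 0 otherwise; about 2 pmol printed per array spot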
STAT3 SMM: binds human STAT3 on microarray | P40763 | Small molecule microarray, His-STAT3 binding, anti-His fluorescence | calls only | 17,000 tested, 0.2% active | AID 624138;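 active = compounds whose four printed spots each show fluorescence over background unusually high for their array block, chance value under 7%; compounds were printed on slides so no solution concentration is given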;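 also: about 2 pmol printed per array spot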
Target sequence (P40763 whole entry, looked up): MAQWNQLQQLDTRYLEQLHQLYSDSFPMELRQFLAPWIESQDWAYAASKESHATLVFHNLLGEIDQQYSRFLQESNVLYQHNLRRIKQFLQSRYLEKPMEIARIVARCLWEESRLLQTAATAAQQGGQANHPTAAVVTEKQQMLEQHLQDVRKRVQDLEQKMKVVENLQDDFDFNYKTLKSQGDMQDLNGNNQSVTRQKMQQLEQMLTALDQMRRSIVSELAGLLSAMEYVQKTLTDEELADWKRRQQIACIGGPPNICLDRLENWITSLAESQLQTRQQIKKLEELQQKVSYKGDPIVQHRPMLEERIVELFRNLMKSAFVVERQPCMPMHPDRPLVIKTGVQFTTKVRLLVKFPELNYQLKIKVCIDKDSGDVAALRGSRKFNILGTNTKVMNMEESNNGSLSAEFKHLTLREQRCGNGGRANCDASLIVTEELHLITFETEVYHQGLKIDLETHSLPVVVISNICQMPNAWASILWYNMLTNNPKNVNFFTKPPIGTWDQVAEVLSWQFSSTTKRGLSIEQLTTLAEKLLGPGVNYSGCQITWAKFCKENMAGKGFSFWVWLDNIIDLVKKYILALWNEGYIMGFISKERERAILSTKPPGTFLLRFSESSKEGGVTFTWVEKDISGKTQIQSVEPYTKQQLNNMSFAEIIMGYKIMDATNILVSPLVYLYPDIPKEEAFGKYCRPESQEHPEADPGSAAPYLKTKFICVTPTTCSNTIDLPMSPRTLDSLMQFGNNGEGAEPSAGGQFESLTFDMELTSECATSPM
p53 mut binder: binds human mutant p53 on microarray. small molecule microarray binding, anti-GST fluorescence. calls only. 17,000 tested, 0.4% active. AID 624136;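 active = compounds whose four printed spots each glow above background more than chance allows, each with a p-value under 7%; compounds were printed on slides so no solution concentration is given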;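 also: about 2 pmol printed per array spot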
Calls only; i = inactive; / = not tested or not shown; + = active, no number. This is a subset, so the mix of outcomes need not match the whole.

Order of values: ID4 SMM, Myc binder, STAT3 SMM, p53 mut binder
> O=C(CC1(O)C(=O)N(Cc2ccccc2)c2ccccc21)c1cc2ccccc2oc1=O (configuration not stated)
    i, i, i, i
> COc1ccc(S(=O)(=O)Nc2ccc3c(c2)CC(=O)N([C@H](C)CO)C[C@@H](C)[C@@H](CN(C)S(=O)(=O)c2cn(C)cn2)O3)cc1
    i, i, i, i
> C[C@H](CO)N1C[C@H](C)[C@H](CN(C)S(C)(=O)=O)OCCCC[C@H](C)Oc2ccc(NC(=O)C3CCCCC3)cc2C1=O
    /, i, i, i
> COc1ccc(CN(C)C[C@H]2Oc3ccc(NC(=O)Cc4ccccc4)cc3C(=O)N([C@@H](C)CO)C[C@@H]2C)cc1
    i, i, i, i
> COc1cc(O)c2c(=O)cc(-c3cc(OC)c(OC)c(O)c3OC)oc2c1
    /, i, i, i
> CC1(C)O[C@H]2CC(=O)OC[C@@]23[C@H]1CC(=O)[C@@]1(C)C2=CC(=O)O[C@@H](c4ccoc4)[C@]2(C)CC[C@@H]13
    /, +, i, i
> CNC[C@@H]1Oc2ccc(NC(=O)Nc3ccccc3)cc2CC(=O)N([C@@H](C)CO)C[C@@H]1C
    i, i, i, i
> COc1ccc(NC(=O)Nc2ccc3c(c2)CC(=O)N([C@H](C)CO)C[C@@H](C)[C@@H](CN(C)C)O3)cc1
    i, i, i, i
> CN(C/C=C/c1ccccc1[N+](=O)[O-])CCc1ccccn1
    i, i, i, i
> C[C@@H]1CN([C@H](C)CO)C(=O)c2cc(N(C)C)ccc2O[C@H]1CN(C)C(=O)Nc1ccccc1
    i, i, i, i
> CCCOc1ccc(-c2nc(SCC(=O)O)n[nH]2)cc1
    i, i, i, i
> COc1ccc(S(=O)(=O)Nc2cccc3c2O[C@@H](CN(C)C)[C@@H](C)CN([C@@H](C)CO)C3=O)cc1
    i, i, i, i
> C[C@H]1CN([C@@H](C)CO)C(=O)c2cc(N(C)C)ccc2O[C@H]1CN(C)S(=O)(=O)c1cn(C)cn1
    i, i, i, i
> C[C@H](CO)N1C[C@H](C)[C@H](CN(C)C(=O)Nc2cccc3ccccc23)Oc2c(NS(=O)(=O)c3ccc(Cl)cc3)cccc2C1=O
    i, i, i, i
> C[C@@H]1CCCCO[C@@H](CN(C)C(=O)c2ccncc2)[C@H](C)CN([C@H](C)CO)C(=O)c2cc(NC(=O)Cc3ccccc3)ccc2O1
    i, i, i, i
> C[C@H]1CCCCO[C@@H](CN(C)C)[C@@H](C)CN([C@@H](C)CO)C(=O)c2cc(NS(C)(=O)=O)ccc2O1
    i, i, i, i
> CC1=C(CC(=O)O)c2cc(F)ccc2/C1=C/c1ccc(S(C)=O)cc1 (configuration not stated)
    /, i, i, i
> CC1CCC2C(C(=O)O)=COC(O[C@@H]3O[C@H](CO)[C@@H](O)[C@H](O)[C@H]3O)C12 (some centres not stated)
    /, i, i, i
> Cc1noc(C)c1NC(=O)Nc1cccc2c1O[C@H](CN(C)S(=O)(=O)c1cccs1)[C@@H](C)CN([C@H](C)CO)C2=O
    i, i, i, i
> O=C1CCCN1CCCNc1ncnc2c1cnn2-c1ccc(Cl)cc1
    i, i, i, i

For reference, 2 of the compounds above.
Order of values: ID4 SMM, Myc binder, STAT3 SMM, p53 mut binder
> C[C@H]1CCCCO[C@@H](CN(C)C)[C@@H](C)CN([C@@H](C)CO)C(=O)c2cc(NS(C)(=O)=O)ccc2O1
    i, i, i, i
> CC1=C(CC(=O)O)c2cc(F)ccc2/C1=C/c1ccc(S(C)=O)cc1 (configuration not stated)
    /, i, i, i

The list goes on.
Order of values: ID4 SMM, Myc binder, STAT3 SMM, p53 mut binder
> C[C@H]1CN([C@@H](C)CO)C(=O)c2cccc(NC(=O)c3ccncc3)c2O[C@H]1CN(C)Cc1ccc(C(F)(F)F)cc1
    i, i, i, i
> COc1cccc2cc(C(=O)C3C(=O)C(=O)N(c4nc(C)c(C)s4)C3c3ccco3)oc12 (configuration not stated)
    i, +, i, i
> O=C1CC(c2cccs2)Cc2nc(NCCN3CCOCC3)ncc21 (configuration not stated)
    i, i, i, i
> C[C@H](CO)N1C[C@H](C)[C@H](CN(C)C(=O)NC2CCCCC2)Oc2c(NC(=O)Nc3ccc(F)cc3)cccc2C1=O
    i, i, i, i
> O=C1Nc2ccccc2-c2nc3ccccc3c(=O)n2-c2c(O)cccc21
    /, i, i, i
> C[C@@H]1CN([C@@H](C)CO)C(=O)Cc2cc(NC(=O)Nc3ccc(F)cc3)ccc2O[C@H]1CN(C)Cc1ccc2c(c1)OCO2
    /, i, i, i
> COc1ccc(S(=O)(=O)N(C)C[C@@H]2Oc3ccc(NC(=O)Cc4cn(C)c5ccccc45)cc3C(=O)N([C@@H](C)CO)C[C@@H]2C)cc1
    i, i, i, i
> C[C@@H]1CN([C@@H](C)CO)C(=O)Cc2cc(NC(=O)NC3CCCCC3)ccc2O[C@@H]1CN(C)Cc1ccncc1
    i, i, i, i
> COc1ccc(CN(C)C[C@H]2Oc3c(NC(=O)c4nc5ccccc5s4)cccc3C(=O)N([C@H](C)CO)C[C@@H]2C)cc1
    i, i, i, i
> Cc1nc(-c2ccccc2)nc(SCC(=O)O)c1Cc1ccccc1
    i, i, i, i
> COC(=O)CCCCCCC(=O)Nc1ccc(NC(=O)CCCC[P+](c2ccccc2)(c2ccccc2)c2ccccc2)cc1
    +, i, i, i
> C[C@H]1CN([C@@H](C)CO)C(=O)CCCn2cc(nn2)CO[C@H]1CN(C)C(=O)Nc1ccc2c(c1)OCO2
    i, i, i, i
> Cc1noc(C)c1S(=O)(=O)N(C)C[C@H]1Oc2ccc(NC(=O)Nc3ccccc3)cc2CC(=O)N([C@H](C)CO)C[C@@H]1C
    i, i, i, i
> C[C@@H]1CCCCO[C@@H](CN(C)C(=O)Nc2ccccc2)[C@@H](C)CN([C@H](C)CO)C(=O)c2cc(NC(=O)Cc3ccccc3)ccc2O1
    i, i, i, i
> C[C@H]1CCCCO[C@H](CN(C)Cc2ccncc2)[C@@H](C)CN([C@@H](C)CO)C(=O)c2cc(NS(=O)(=O)c3cn(C)cn3)ccc2O1
    /, i, i, i
> C[C@@H]1CCCCO[C@H](CN(C)C(=O)Nc2ccccc2)[C@H](C)CN([C@@H](C)CO)C(=O)c2cc(N(C)C)ccc2O1
    i, i, i, i
> C[C@H]1CN([C@@H](C)CO)C(=O)c2cccc(NC(=O)c3ccncc3)c2O[C@H]1CN(C)C(=O)Nc1ccccc1
    i, i, i, i
> CNC[C@@H]1Oc2ccc(NC(=O)NC3CCCCC3)cc2C(=O)N([C@@H](C)CO)C[C@@H]1C
    i, i, i, i
> C[C@@H]1CN([C@@H](C)CO)C(=O)c2cc(NC(=O)Cc3cn(C)c4ccccc34)ccc2O[C@@H]1CN(C)S(=O)(=O)c1ccc(Cl)cc1
    /, i, i, i
> COC(=O)c1ccc(C(=O)OC)c(NC(=O)c2cnn3c(C(F)F)cc(-c4ccc(C)cc4)nc23)c1
    i, i, i, i
> O=C(C1=C[C@H](c2coc3ccccc3c2=O)C[C@H](OCc2ccc(CO)cc2)O1)N1CCOCC1
    i, i, i, i
> Nc1nnc(SC/C=C/CSc2nnc(N)s2)s1
    i, i, i, i
> C[C@@H]1CN([C@H](C)CO)C(=O)c2cc(NC(=O)C3CC3)ccc2O[C@H]1CN(C)S(=O)(=O)c1ccc(F)cc1
    /, i, i, i
> Cc1noc(C)c1S(=O)(=O)Nc1ccc2c(c1)CC(=O)N([C@@H](C)CO)C[C@H](C)[C@@H](CN(C)S(=O)(=O)c1ccccc1)O2
    i, i, i, i
> C[C@H](CO)N1C[C@H](C)[C@@H](CN(C)C(=O)c2ccc3ccn(C)c3c2)OCc2cn(nn2)CCCC1=O
    i, i, i, i
> COc1c(O)cc2c(c1O)C(=O)OC(C)C(O)c1c(O)c(O)c(OC)c(O)c1C(=O)OC(C)C2O (configuration not stated)
    i, i, i, i
> O=C(NCC(F)(F)F)[C@@H]1c2ccccc2C(=O)N(CC23CC4CC(CC(C4)C2)C3)[C@H]1c1ccc(CO)cc1
    i, i, i, i
> COc1ccc(CN2C(=O)[C@@H]3[C@H]4C(=O)O[C@H](c5ccccc5)[C@@H](C)N(C)C(=O)CC/C=C/[C@H]4O[C@@]34C=CCN(Cc3ccccc3)C(=O)[C@@H]24)cc1
    i, i, i, i
> COc1ccc(S(=O)(=O)N(C)C[C@H]2Oc3c(NS(=O)(=O)c4cccs4)cccc3C(=O)N([C@H](C)CO)C[C@@H]2C)cc1
    i, i, i, i
> C[C@@H]1CCCCO[C@H](CN(C)S(C)(=O)=O)[C@H](C)CN([C@@H](C)CO)C(=O)c2cc(N(C)C)ccc2O1
    /, i, i, i

Next entries.
SMILES | ID4 SMM | Myc binder | STAT3 SMM | p53 mut binder
COc1ccc(S(=O)(=O)Nc2ccc3c(c2)CC(=O)N([C@@H](C)CO)C[C@H](C)[C@@H](CN(C)C(=O)Nc2cccc4ccccc24)O3)cc1 | / | i | i | i
Clc1ccc(-c2nnc(SCc3ccon3)o2)c(Cl)c1 | i | i | i | i
O=C(NCc1ccccc1)C1=C[C@H](c2ccc(C(F)(F)F)cc2)C[C@H](OCCCCO)O1 | i | i | i | i
CCCCCCCCCC(O)C(C)C(O)C(/C=C(\C)C1=CC(=O)C(C)CO1)CO (configuration not stated) | / | i | i | i
Cc1ccc(N(CC(N)=O)S(C)(=O)=O)c(C)c1 | i | i | i | i
COc1ccc(CN(C)C[C@@H]2Oc3ccc(NC(=O)CCN4CCOCC4)cc3C(=O)N([C@@H](C)CO)C[C@H]2C)cc1 | i | i | i | i
COc1ccc(CN(C)C[C@@H]2Oc3ccc(NS(=O)(=O)c4ccc(Cl)cc4)cc3CC(=O)N([C@H](C)CO)C[C@@H]2C)cc1 | i | i | i | i
C[C@@H]1CN([C@H](C)CO)C(=O)c2cccc(NS(C)(=O)=O)c2O[C@H]1CN(C)Cc1ccccc1 | i | i | i | i
Cc1ccc(S[C@]2(C(=O)NCC(F)(F)F)CC(=O)N(C3CCCCC3)[C@@H]2c2ccc(CO)cc2I)cc1 | i | i | i | i
O=c1c(O[C@@H]2O[C@H](CO[C@@H]3O[C@H](CO)[C@@H](O)[C@H](O)[C@H]3O)[C@@H](O)[C@H](O)[C@H]2O)c(-c2ccc(O)cc2)oc2cc(O)cc(O)c12 | / | i | i | i
COc1ccc(NS(=O)(=O)c2ccc(I)cc2)cc1N1CCN(C)CC1 | i | i | i | i
COc1ccc(C2CC(=O)Oc3ccc(C(C)(C)C)cc32)cc1 (configuration not stated) | i | i | i | i
CC(C)NC(=O)Nc1cccc2c1O[C@@H](CN(C)Cc1ccc(Cl)c(Cl)c1)[C@@H](C)CN([C@H](C)CO)C2=O | i | i | i | i
CNC[C@H]1Oc2ccc(N)cc2C(=O)N([C@H](C)CO)C[C@@H]1C | i | i | i | i
COc1ccc(S(=O)(=O)N(C)C[C@H]2Oc3c(NC(=O)Nc4cccc5ccccc45)cccc3C(=O)N([C@@H](C)CO)C[C@@H]2C)cc1 | i | i | i | i
CCCCc1nc2ccn(CC(=O)N(C)C)c(=O)c2n1Cc1ccc(-c2ccccc2-c2nn[nH]n2)cc1 | i | i | i | i

2 compounds from above, reduced to ID4 SMM.
| canonical_smiles | ID4 SMM |
| --- | --- |
| COc1ccc(S(=O)(=O)N(C)C[C@H]2Oc3c(NC(=O)Nc4cccc5ccccc45)cccc3C(=O)N([C@@H](C)CO)C[C@@H]2C)cc1 | i |
| COc1ccc(NS(=O)(=O)c2ccc(I)cc2)cc1N1CCN(C)CC1 | i |

Remaining list, next part:
SMILES | ID4 SMM | Myc binder | STAT3 SMM | p53 mut binder
N#CCCN(Cc1ccco1)C(=S)Nc1ccccc1 | i | i | i | i
O=C(CN1C(=O)c2ccc([N+](=O)[O-])cc2C1=O)Nc1ccccc1-c1ccccc1 | i | i | i | i
C[C@@H]1CN([C@H](C)CO)C(=O)Cc2cc(NC(=O)C3CC3)ccc2O[C@@H]1CN(C)C(=O)Nc1ccccc1 | i | i | i | i
C[C@H](CO)N1C[C@H](C)[C@@H](CN(C)Cc2ccc(C(=O)O)cc2)Oc2ccc(NC(=O)CCCN(C)C)cc2C1=O | i | i | i | i
CC(Oc1ccc(Cl)cc1Cl)C(=O)Nc1ccccc1-c1nc2ccccc2s1 (configuration not stated) | i | i | i | i
Cc1nn(C(C)C(=O)NCc2ccco2)c(C)c1[N+](=O)[O-] (configuration not stated) | i | i | i | i
Cc1c(N(CC(=O)O)S(=O)(=O)c2ccccc2)c(=O)n(-c2ccccc2)n1C | i | i | i | i
COc1cc2c(c(OC)c1OC)-c1cc3c(cc1C[C@H]1C(=O)OC[C@@H]1C2)OCO3 | i | i | i | i
CC(C)NC(=O)N(C)C[C@@H]1OCCCC[C@@H](C)Oc2ccc(NC(=O)Nc3ccc(C(F)(F)F)cc3)cc2C(=O)N([C@H](C)CO)C[C@@H]1C | i | i | i | i
COc1ccc(NC(=O)Nc2ccc3c(c2)C(=O)N([C@@H](C)CO)C[C@@H](C)[C@H](CN(C)S(=O)(=O)c2cccs2)O3)cc1 | i | i | i | i
O=C(COc1ccc(I)cc1)NCc1ccco1 | i | i | i | i
COc1ccc(CN(C)C[C@@H]2Oc3ccc(NC(=O)CCN4CCOCC4)cc3C(=O)N([C@H](C)CO)C[C@@H]2C)cc1 | i | i | i | i
CCOC(=O)c1ccc(CNC(=O)c2n[nH]c(=O)c3ccccc23)o1 | i | i | i | i
O=C(OC[C@@H]1[C@H]2c3ccccc3OC1(CO)N=C1SCCCN12)c1ccccc1 | i | i | i | i

Source: PubChem
